Autofluor counter: compound fluorescence in toxin protease inhibitor counterscreen; compound autofluorescence counterscreen, microsphere flow cytometry; active compounds read high; 360,000 compounds, 3.1% hits; fluorescence intensity (test concentration not listed);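 active means at least 3 SD above the mean of all compounds, about 16000 in these data; inconclusive means too few beads counted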;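 further: 100 nL of 1 mM stock went into each well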
Sa RN4220 lethal: growth inhibition of S. aureus RN4220, primary screen, OD600. inhibition, % (test concentration not listed). 330,000 compounds, 0.33% hits. AID 1259311, 2017. 16 h;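 active means z-score of -3 or lower and OD600 up to 0.18 on both plates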;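 further: plate controls were untreated cells for no effect and reference antibiotic for full effect; stock transfer was 100 nL into about 80 µL; one replicate is shown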
ugtP null kill: growth inhibition of ugtP-null S. aureus, primary screen, RN4220 ugtP deletion, OD600; 16 h; some inactives read as strong as hits; growth inhibition, % (concentration not given with the values); 330,000 compounds, 0.54% hits;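 active means z-score under -3 and OD600 up to 0.15 on both plates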;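 further: plate controls were untreated wells for no effect and antibiotic for full effect; wells of about 80 µL received 100 nL stock; the first replicate is given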
BJeLR viability: MLPCN primary cell-based screen for lethality selective to Ras in HRASV12 cells. BJeLR (HRASV12) viability, CellTiter-Glo ATP luminescence, 48 h; reference of the scale not given here. inhibition, % (test concentration not listed). 300,000 compounds, 0.17% hits. AID 1554, 2009;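 active means replicate mean above 50%; inconclusive means above 50% but judged a plate artefact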;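 further: 50 nL library stock added to about 25 µL; numbers are from one replicate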
PrP UTR inh: inhibition of PrP 5' UTR reporter expression; cell-based PrP 5' UTR mRNA reporter, plate reader; inhibition, % (no concentration beside the values); 340,000 compounds, 0.35% hits; AID 488862, 2010;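 active means every replicate at 50% or more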;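 further: 0 = median of the neutral control wells; tested in H4 reporter cells; numbers are from one replicate; inactives centre near -14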
Mtb hypoxia rep: PubChem AID 1159583; fluorescence inhibition, % (concentration not given with the values); M. tuberculosis hypoxia-regulated fluorescent reporter, fluorescence; 300,000 compounds, 0.1% hits;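 active means 35 to 45% if threefold the growth effect, above 45% if 1.5-fold the growth effect; inactive means the rest, general growth blockers included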;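 further: wells of about 50 µL received 100 nL stock; 0% = vehicle wells and 100% = reference inhibitor wells; whole bacteria with a GFP reporter of the hypoxia response; strong numbers were not always called active; many hits fall short of the cut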
Mtb hypoxia rep growth: second read-out of Mtb hypoxia rep, no call of its own (marks repeat the call); growth inhibition, %; measured here: M. tuberculosis growth (absorbance);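 0% = vehicle and 100% = reference antibiotic; read after six days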
Active calls of the source: *; ? = inconclusive; . = no result given.

Results follow in this order: Autofluor counter	Sa RN4220 lethal	ugtP null kill	BJeLR viability	PrP UTR inh	Mtb hypoxia rep	Mtb hypoxia rep growth
- O=C(CN(Cc1ccco1)C(=O)c1ccc([N+](=O)[O-])cc1)Nc1ccccc1C(F)(F)F
 : 7914	2.6	5	.	-14	6	2
- N#Cc1ccc(OCC(=O)NCC2COc3ccccc3O2)cc1 (stereo not drawn)
 : ?	3.5	14	.	-1	-3	-4
- Cc1ccc(NC(=O)C2CCCN(S(=O)(=O)c3cnc[nH]3)C2)cc1C (stereo not drawn)
 : 5068	1.2	7	-1	-16	.	.
- c1ccc2c(c1)CCN(C1=Nc3cccc4cccc1c34)C2
 : 4837	6.7	3	.	-77	14	21
- COc1ccc(C(c2sc3nc(C)nn3c2O)N2CCN(CCO)CC2)cc1OC (stereo not drawn)
 : 5635	-9.9	-4	8	-9	3	10
- CN(C)CCCNC(=O)C(=O)Nc1ccc2c(c1)N(S(=O)(=O)c1cccs1)CCC2
 : 6251	2.3	1	7	-3	-8	3
- COc1ccc(C2=NOC(C)(c3sc(-c4ccc(Cl)cc4)nc3C)C2)cc1 (stereo not drawn)
 : .	-4.4	8	-2	.	2	-3
- Cc1cc(C(=O)NC2CCCCC2)on1
 : 4490	2.2	4	-3	4	14	20
- O=C(Cc1ccccc1[N+](=O)[O-])NC1CC2CCC1C2 (stereo not drawn)
 : .	3.1	12	-5	-16	11	5
- COCCN(C(=S)Nc1ccc(C)cc1)C(C)c1ccco1 (stereo not drawn)
 : 5645	3.8	7	-1	-9	12	5
- S=c1[nH]c2ccccc2n2cccc12
 : 3553	14	-9	-3	-23	-15	6
- Cc1ccc(-c2nc(NN=Cc3cccnc3)c3ccccc3n2)cc1
 : .	13	5	.	.	9	2
- COc1ccccc1OCCNC(=O)c1cc(C2CC2)nc2c1cnn2C(C)C
 : 3107	5.1	-2	.	-13	5	1
- CSc1nsc(SCC(=O)Nc2ccccc2C(=O)O)n1
 : 6168	0.0	13	-7	-15	21	34
- CCC1(c2ccc(F)cc2)NC(=O)N(CC(=O)Nc2ccc(S(N)(=O)=O)cc2)C1=O (stereo not drawn)
 : 4539	2.2	2	2	-3	-5	-4
- COc1ccccc1-c1ccc(C=NO)o1
 : .	11	15	.	.	18	10
- CCOC(=O)N1CC=C2C(C#N)=C(N)C(C#N)(C#N)[C@H](c3ccsc3)[C@H]2C1
 : 11309	2.7	-8	-9	-23	4	12
- O=C(COC(=O)/C=C/c1ccc([N+](=O)[O-])cc1)NCc1ccco1
 : 4422	2.0	10	-1	-4	4	2
- CCOc1ccc(-c2nnc(-c3cccs3)o2)cc1OCC
 : 3955	8.6	-8	-6	-41	11	11
- C[C@H](CO)N1C[C@H](C)[C@@H](CN(C)S(=O)(=O)c2ccccc2)Oc2c(NC(=O)Nc3ccc4c(c3)OCO4)cccc2C1=O
 : 3693	4.0	-4	.	2	-6	10
- CSc1nc(-c2ccco2)nn1S(=O)(=O)c1ccc(C)cc1
 : 6026	1.9	-3	-1	-10	.	.
- CC1=CC2=NC(=O)/C(=C\c3cccn3CCOc3ccccc3C)C(=N)N2O1
 : 2396	-2.1	-2	10	-7	0	16
- Cc1ccc(C(=O)N/C(=C\c2ccc(C)o2)C(=O)O)cc1
 : 4820	3.2	6	-3	-23	5	0
- O=C(c1ccco1)N1CCN(C(=O)c2cccc3c2C(=O)N(C2CCCCC2)C3)CC1
 : 2464	2.4	2	-11	-15	-4	15
- COc1cccc(C2CC(c3cccc(C)c3)n3ncnc3N2)c1 (stereo not drawn)
 : 6195	1.3	7	-6	-34	.	.
- CCOc1cc(/C=N/n2c(C)nnc2C)ccc1O
 : 5463	.	.	1	-19	.	.
- O=C(Nc1ccccc1)OCCNC(=O)c1cccc(Cl)c1
 : 2304	4.7	-5	-4	-36	.	.
- CCOc1cc(/C=N/NC(=O)CN2CCCCC2)ccc1OCc1cccc(Cl)c1
 : 2159	.	.	3	1	.	.
- CC1CCCN(C(=O)COC(=O)c2cc(Br)ccc2O)C1 (stereo not drawn)
 : 8777	-2.5	-11	.	-20	-11	1
- CCOC(=O)CCn1cnc2ccc([N+](=O)[O-])cc2c1=O
 : 4374	3.4	6	2	-18	4	5

Some of these compounds in order of molecular weight, rising.
Results follow in this order: Autofluor counter	Sa RN4220 lethal	ugtP null kill	BJeLR viability	PrP UTR inh	Mtb hypoxia rep	Mtb hypoxia rep growth
- O=C(Cc1ccccc1[N+](=O)[O-])NC1CC2CCC1C2 (stereo not drawn)
 : .	3.1	12	-5	-16	11	5
- COc1cccc(C2CC(c3cccc(C)c3)n3ncnc3N2)c1 (stereo not drawn)
 : 6195	1.3	7	-6	-34	.	.
- N#Cc1ccc(OCC(=O)NCC2COc3ccccc3O2)cc1 (stereo not drawn)
 : ?	3.5	14	.	-1	-3	-4
- CSc1nc(-c2ccco2)nn1S(=O)(=O)c1ccc(C)cc1
 : 6026	1.9	-3	-1	-10	.	.
- CC1CCCN(C(=O)COC(=O)c2cc(Br)ccc2O)C1 (stereo not drawn)
 : 8777	-2.5	-11	.	-20	-11	1
- CCOc1cc(/C=N/NC(=O)CN2CCCCC2)ccc1OCc1cccc(Cl)c1
 : 2159	.	.	3	1	.	.

Remaining list, next part
Results follow in this order: Autofluor counter	Sa RN4220 lethal	ugtP null kill	BJeLR viability	PrP UTR inh	Mtb hypoxia rep	Mtb hypoxia rep growth
- COc1ccccc1CNC(=O)C(CCSC)NC(=O)c1cccc(S(=O)(=O)N2CCOCC2)c1 (stereo not drawn)
 : 3949	4.4	1	.	-31	11	7
- COC(=O)CSc1nc2ccccn2c(=O)c1C=O
 : 4065	-0.1	9	4	-72	-1	7
- CC1NC(=O)N(C)C2NC(=O)N(C)C(c3ccc([N+](=O)[O-])cc3)C12 (stereo not drawn)
 : .	2.4	-5	.	.	-1	2
- CCNC(=O)CSc1nnc(-c2ccccc2)n1-c1ccc(OCC)cc1
 : 10926	2.7	-2	-4	-15	0	6
- Cc1nn(CCCC(=O)Nc2cc(Oc3ccc(F)cc3)cc([N+](=O)[O-])c2)c(C)c1[N+](=O)[O-]
 : 7997	-5.5	-16	4	-34	7	4
- CC(C)c1ccc(NC(=O)[C@H](NC(=O)[C@@H]2Cc3ccccc3CN2)c2ccccc2)cc1
 : 5974	-1.6	-4	-10	-15	-3	7
- O=c1[nH]cnc2[nH]ncc12
 : 6220	6.6	-1	6	-16	11	6
- COc1ccc(C2CCCN2C(=S)Nc2ccc(C)cc2Cl)cc1OC (stereo not drawn)
 : 4094	3.2	1	30	-25	10	1
- COc1ccc(OC)c(NC(=O)COC(=O)CCCN=C2NS(=O)(=O)c3ccccc32)c1
 : 4133	3.1	4	.	-16	6	3
- Cc1cc(NC(=O)COC(=O)[C@@H](NS(=O)(=O)c2ccccc2)C(C)C)no1
 : 4423	2.2	8	-6	-12	4	3
- COc1ccc(C(=O)Nc2ccc(Nc3ccccc3)cc2)cc1OC
 : 3499	0.6	5	-1	-21	-3	4
- Cn1c(=O)c2c(nc(N3CCCCC3)n2CCSc2nc3ccccc3s2)n(C)c1=O
 : 16274*	-6.4	-6	-3	8	-8	4
- C=CCNC(=O)c1cc(-c2ccncc2)nc2c(C)cc(C)cc12
 : 5691	-0.1	1	3	-16	-9	12
- Cc1ccc(NC(=O)CSCC(=O)NC2(C)CCS(=O)(=O)C2)cc1 (stereo not drawn)
 : 3921	3.5	1	.	-1	7	7
- N#C/C(=C1\C(=O)Nc2c(Cl)cc(Cl)cc21)c1nnc2n1CCCCC2
 : 8604	0.2	-8	3	-14	8	4
- Cc1ccccc1CNC(=O)C(=O)NCCC1CCCCN1S(=O)(=O)c1cccs1 (stereo not drawn)
 : ?	3.6	6	2	-3	-6	2
- O=C(CCl)Nc1ccccc1C(=O)c1ccccc1
 : 3165	2.7	7	-1	3	23	14
- Cc1ccc(OCC(=O)Nc2nnn(C)n2)c(C)c1
 : 9435	6.2	-3	-2	-33	7	7
- CC1CCN(C(=O)c2cc3nc(-c4ccccc4)cc(-c4ccccc4)n3n2)CC1
 : 20793*	-2.1	-15	-12	-8	-2	1
- COC(=O)C1=C(N)Oc2cc(N(C)C)ccc2C1c1ccccc1OC (stereo not drawn)
 : 4271	0.6	-11	18	43	4	5

Next structures follow.
molecule	Autofluor counter	Sa RN4220 lethal	ugtP null kill	BJeLR viability	PrP UTR inh	Mtb hypoxia rep	Mtb hypoxia rep growth
CCOC(=O)c1ccc(NC(=O)c2cc(S(=O)(=O)N3CCOCC3)cn2C)cc1	6865	-4.7	-9	5	-12	3	3
O=C(/C=C/c1ccc(Br)o1)Nc1nnc(C2CC2)s1	.	2.3	2	-1	.	-1	4
CC(C)(C)c1ccc(NC(=O)CSc2n[nH]c(=O)n2-c2cccnc2)cc1	5301	5.8	4	10	-22	-7	-1
CCN(CC)S(=O)(=O)c1ccc2c(c1)nc(CCC(=O)Nc1ccccc1Cc1ccccc1)n2CC	9591	5.4	-1	14	-5	3	-6
CN(CC(=O)NCC(=O)Nc1ccc(F)c(F)c1F)C1CCS(=O)(=O)C1 (stereo not drawn)	4225	6.1	6	.	-2	15	3
O=C(CNC(=O)c1ccccc1F)NC1CC1	19571*	2.9	2	10	-17	8	16
Cc1ccc(NS(=O)(=O)c2ccc3c(c2)NC(=O)CCS3)c(C)c1	4855	98*	96*	-1	3	13	13
Cc1cc(OCCCCn2ccnc2)cc(C)c1Cl	4448	11	-4	5	-14	.	.
O=C(Nc1nc2ccccc2n1CCN1CCOCC1)c1ccc(COc2ccccc2Br)o1	2059	2.0	2	-2	-17	1	6
Cc1ccc(S(=O)(=O)N2CCN(C(=O)c3ccc(-n4cncn4)c([N+](=O)[O-])c3)CC2)cc1	5553	-3.2	4	18	-29	-1	-2
CCCCOP(=O)(c1ccc(N(C)C)cc1)C(O)c1ccc(OC)c(OC)c1 (stereo not drawn)	3758	8.0	4	-3	14	11	6
Clc1cccc(-c2ccc3ncnc(NCc4cccnc4)c3c2)c1	3055	-3.2	-29	.	12	19	10
CC(NC(=O)c1ccccc1)C(=O)NN=Cc1ccco1 (stereo not drawn)	.	1.5	6	.	.	1	-7
NS(=O)(=O)c1cccc(NC(=O)CSc2nnnn2-c2ccccc2)c1	4399	5.6	3	-6	-19	-13	8
O=C(NCCN1CCOCC1)C1CCN(S(=O)(=O)N2CCCC2)CC1	7019	3.1	7	4	-21	2	2
NS(=O)(=O)c1ccc(CNS(=O)(=O)c2ccc3ccccc3c2)cc1	6440	-5.0	-5	-6	-9	4	-25

Screening results as filed in PubChem BioAssay.
